miR-21 reporter: raises the signal of a miR-21 reporter; HeLa miR-21 FLuc reporter, luciferase, 48 h; Potency, µM (doses to about 38.3 µM), for the others: at the top dose reporter change, positive = more light; 340,000 tested, under 10 active; active = well fitted rising curve with a large enough effect; inconclusive = small, poorly fitted or top-dose-only effect; inactive = no such curve, though single readings can be large or run the other way;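 further: % of control where 0% means no effect; miR-21 action dims this reporter so a rising signal means less miR-21 action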
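HeLa miR-21-FLuc reporter line, endogenous miR-21; 2000 cells/well in DMEM/10% FBS; compound titration up to ~40uM final, 48 h, 37 degree Celsius; luciferase detection reagent, 15 min lysis, CCD luminescence.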
GLA inh pH 4.5: alpha-galactosidase A (human) inhibition, pH 4.5; 230,000 tested, under 10 active; purified enzyme, 4-MU-alpha-Gal fluorescence, pH 4.5; activity change, negative = inhibition, % at 105 µM; AID 1467; inconclusive = small, poorly fitted or top-dose-only inhibition, or a rising curve; inactive = flat fitted curve, though single readings scatter; no compound was filed as active;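 further: 0% = full activity with enzyme and -100% = basal without enzyme; dose as in the result columns while the protocol names 77 µM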
Rango release inh: inhibitors of RanGTP-induced Rango-importin beta complex dissociation | Potency, µM (series often up to 46.1 µM), for the others: at the highest dose activity change, negative = inhibition | hit rate 0.071% among 340,000 | O95149+P62826 | Biochemical FRET Rango-importin beta, RanGTP-induced dissociation; active means falling FRET ratio curve, often poorly fitted, with flat reads before Ran was added; inconclusive means other falling curves, or compound fluorescence or quenching; inactive means flat or rising ratio curve;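 further: potency means the concentration at half of the fitted maximal effect; % of control where 0% means no effect; nearly all actives have a fitted effect of over 45% in size; -100% = wells without RanGTP and RCC1; the record marks most hits as doubtful in a second field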
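Quantitative HTS using a FRET biosensor: 0.1 uM Rango, 0.25 uM importin beta, 0.6 uM Ran, 2 mM GTP, 0.2 uM RCC1 final, PBS with DTT, Tween-20 and BSA. Post-read taken 45 min after Ran addition.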
Rango complex inh: inhibitors of Rango-importin beta complex formation. Potency, µM (titrated, usually from 92.2 µM), without a hit: at the highest dose inhibition of complex formation. hit rate 0.031% among 340,000. AID 540263. Rango CFP/YFP FRET sensor + importin beta, 45 min; active = rising FRET ratio curve, often small or poorly fitted; inconclusive = mostly compound fluorescence or quenching in the first reads; inactive = flat curves in all reads;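 further: potency means the concentration at half of the fitted maximal effect; 0% = DMSO wells and 100% = buffer wells lacking importin beta; nearly all actives have a fitted effect of over 15% in size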
Target sequence (Q14974 whole entry, looked up): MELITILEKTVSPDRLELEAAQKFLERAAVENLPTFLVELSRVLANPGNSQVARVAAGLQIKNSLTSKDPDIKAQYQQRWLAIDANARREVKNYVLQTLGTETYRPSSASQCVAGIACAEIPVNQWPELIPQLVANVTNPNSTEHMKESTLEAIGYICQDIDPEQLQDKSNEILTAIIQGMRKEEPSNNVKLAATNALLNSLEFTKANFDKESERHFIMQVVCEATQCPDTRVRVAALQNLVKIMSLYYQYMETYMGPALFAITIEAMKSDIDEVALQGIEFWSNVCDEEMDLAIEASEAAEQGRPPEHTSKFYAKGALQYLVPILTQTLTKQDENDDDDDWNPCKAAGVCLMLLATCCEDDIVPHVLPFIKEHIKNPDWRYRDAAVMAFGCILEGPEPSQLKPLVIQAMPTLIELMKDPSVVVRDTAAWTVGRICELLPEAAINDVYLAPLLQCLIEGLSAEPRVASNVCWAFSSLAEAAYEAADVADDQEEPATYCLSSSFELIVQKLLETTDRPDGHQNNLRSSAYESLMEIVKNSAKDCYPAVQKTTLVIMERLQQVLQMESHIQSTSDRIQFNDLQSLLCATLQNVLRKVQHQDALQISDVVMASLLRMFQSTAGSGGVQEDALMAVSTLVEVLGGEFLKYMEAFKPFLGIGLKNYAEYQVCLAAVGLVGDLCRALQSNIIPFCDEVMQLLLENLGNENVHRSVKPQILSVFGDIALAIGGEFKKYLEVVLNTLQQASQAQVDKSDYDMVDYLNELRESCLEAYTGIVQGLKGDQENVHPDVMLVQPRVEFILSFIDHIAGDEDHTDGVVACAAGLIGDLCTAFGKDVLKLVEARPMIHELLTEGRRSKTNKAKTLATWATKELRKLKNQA
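FRET biosensor (snurportin 1 IBB flanked by EYFP and cerulean), 50 nM, with compound 5 min, then 0.125 microM importin beta in PBS, 1 mM DTT, 0.02% Tween-20, 0.1% BSA. CFP/YFP ratio read after 45 min at room temperature; pre-read flags interference.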
The depositor's hits bear a star; ? = inconclusive; · = not tested or not shown; & = joins results of further samples. These rows are one share of the data (hit frequency here may not be typical).

item	Structure	GLA inh pH 4.5	miR-21 reporter	Rango release inh	Rango complex inh
1	O=C(NN1C(=O)NC2(CCCCC2)C1=O)c1ccc(-c2ccc([N+](=O)[O-])cc2)o1	·	9.6%	-1.4%	?
2	COc1ccc(-c2nnc(NC(=O)C3CCCO3)s2)cc1 (stereo not drawn)	6.9	-38.7%	0.4%	-0.3%
3	O=C(OCc1nnc(-c2ccccc2)o1)c1cccc(-n2cnnn2)c1	·	·	-27.6%	-5.5%
4	O=C(NCCN1CCN(c2cccc(Cl)c2)CC1)c1cccn2c(=O)c3ccccc3nc12	·	·	-4.8%	-3.8%
5	COc1ccccc1C1CCN(Cc2ccc(C)cc2)CC1	·	-3.9%	-1.8%	1.2%
6	Cc1cc(-c2nnc(SCC(=O)Nc3ccc(F)cc3F)n2N)n[nH]1	·	1.6%	-3.2%	4.6%
7	CC(=O)Nc1ccc(OCC(O)CN2C(C)CCCC2C)cc1 (stereo not drawn)	3.4	-7.5%	5.1%	3.9%
8	Cc1ccc2cc(NC(=O)CC(CC(=O)O)c3ccccc3)ccc2n1 (stereo not drawn)	·	-2.4%	5.2%	0.8%
9	CCNc1nc(C(=O)O)nc(N2CCOCC2)n1	10.4	1.5%	-7.7%	-3.3%
10	COC(=O)COc1cccc2c(=O)n(CC(=O)N3CCC(C)CC3)ccc12	-0.8	-0.3%	-12.8%	-2.7%
11	O=C(NCc1ccc(F)cc1)c1cc2sccc2n1Cc1ccc(F)cc1	0.8	0.0%	·	·
12	COc1ccc(N2CCN(C(=O)CCC(=O)N3CC(C)Oc4ccccc43)CC2)cc1 (stereo not drawn)	·	10.8%	0.3%	0.0%

Carrying on:
item	Structure	GLA inh pH 4.5	miR-21 reporter	Rango release inh	Rango complex inh
13	CCCCCCSc1cc(-c2nc3cnccn3c2NCCCC)ccc1OC	·	·	?	?
14	COC(=O)CCC(=O)OC1(C)C(=O)C=C2C=C(C3CC3)N(Cc3ccc(OC)cc3)C=C2C1=O (stereo not drawn)	2.3&-5.7	2.7%	?	?
15	Cc1nn(C2CCS(=O)(=O)C2)c(Cl)c1/C=C/C(=O)OCC(=O)c1cc(C)n(-c2ccc(F)cc2)c1C (stereo not drawn)	-18.4	20.8%	1.1%	-2.9%
16	Cc1ccnc(NC(=O)c2ccc(S(=O)(=O)N3CCCCC3)cc2)c1	·	·	-10.9%	2.3%
17	Cc1ccc(-c2nnc(SCC(=O)N3CC(C)CC(C)C3)o2)cc1C (stereo not drawn)	-5.7	-4.3%	15.3%	-0.1%
18	CCOC(=O)c1cnc2c(N=Nc3cccc(Cl)c3)c(N)nn2c1N	4.7	-2.1%	·	·
19	O=C(Nc1ccc2c(c1)OCO2)c1ccc(CO)cc1	·	·	9.6%	5.0%
20	COc1ccc(Cl)cc1NC(=O)CN1CCCCCC1	-11.3	4.8%	11.4%	3.2%
21	Cc1ccccc1C(=O)Nc1ccc2c(c1)C(=O)NC2=O	·	-10.9%	43.0%	-3.0%
22	CC(NC(=O)C1CCN(c2nnc(N3CCCC3=O)s2)CC1)c1ccccc1 (stereo not drawn)	·	0.7%	-19.2%	-2.3%
23	COc1ccc(C(=O)NC2CCN(C(=S)NCCc3ccccc3)CC2)cc1	1.4	-0.3%	15.6%	?
24	O=C(NCc1ccc(F)cc1)C1CCCN1C(=O)Nc1ccccc1 (stereo not drawn)	·	-2.5%	4.2%	0.6%

More entries follow:
item	Structure	GLA inh pH 4.5	miR-21 reporter	Rango release inh	Rango complex inh
25	Cc1cc(NC(=O)c2ccoc2C)ccc1Br	·	·	16.2%	-3.1%
26	Cc1cc(OCCn2ccnc2)cc(C(C)C)c1	0.5	-14.5%	1.2%	-1.8%
27	Cc1nc(SCc2ccc([N+](=O)[O-])cc2)nc2ccccc12	-8.4	-12.5%	-5.4%	-0.2%
28	COc1cc(C2NC(=O)NC(C)=C2C(C)=O)ccc1O (stereo not drawn)	-12.0	1.7%	0.5%	-2.7%
29	CCCOc1ccc(-c2nc(N3CCN(C)CC3)c3ccccc3n2)cc1	·	-74.4%	-4.7%	-1.0%
30	Cc1cc(Br)ccc1NC(=O)CN(C)Cc1cccs1	·	-42.4%	2.4%	?
31	CC(C)C(=O)NNC(=O)c1csc(CS(=O)(=O)c2ccc(Cl)cc2)n1	-3.3	-2.8%	2.3%	0.1%
32	Cc1[nH]ccc(=O)c1Cc1c(Cl)cccc1Cl	·	-3.7%	-9.0%	6.6%
33	O=C(CCC(=O)NNC(=O)c1ccc(Cl)cc1Cl)NCc1ccccc1	·	·	6.1%	-1.7%
34	Cc1ccc(C)c(S(=O)(=O)N2CCN(C(=O)CCc3c[nH]c4ccccc34)CC2)c1	·	·	-16.4%	0.8%
35	CCCn1cnc2c(SCCc3ccccc3)nc(N)nc21	·	·	8.8%	-1.5%
36	CC1=CSC2=NS(=O)(=O)CCN12	-2.2	5.5%	-13.5%	1.3%

Following part:
item	Structure	GLA inh pH 4.5	miR-21 reporter	Rango release inh	Rango complex inh
37	CCOc1ccc(/C=N/NC(=O)Cc2ccccc2)cc1CN1CC2CC(C1)c1cccc(=O)n1C2 (stereo not drawn)	·	·	8.3%	-0.7%
38	COc1ccc(C(C)=O)cc1CN1C(=O)NC2(CCCCCC2)C1=O	-9.4	-3.9%	1.9%	-2.7%
39	Cc1ccc(C(=O)O)cc1N1C(=O)c2cccc3c([N+](=O)[O-])ccc(c23)C1=O	·	?	?	?
40	COc1ccc(CNC(=O)Cn2cc(C)c(=O)[nH]c2=O)cc1	·	·	8.0%	0.0%
41	CC(C)OCCCNC(=O)C1CCC(CNS(=O)(=O)c2cccc3nsnc23)CC1 (stereo not drawn)	·	-0.7%	9.3%	4.7%
42	Cc1cc(N2CCN(S(=O)(=O)c3ccc(Cl)c(Cl)c3)CC2)c2ccccc2n1	8.3	25.7%	6.5%	-5.2%
43	Cc1cccc(N2C(=O)c3cccnc3C2=O)c1	-1.6	-5.6%	-16.7%	1.3%
44	Cc1ccc(Nc2nc3ccc(Cl)cc3n3cnnc23)cc1F	·	-3.7%	2.0%	2.4%
45	COc1ccc(CN=C2NN=C(c3cccc(OC)c3)CS2)cc1	-4.4	-36.1%	35.5%	5.1%
46	O=[N+]([O-])c1ccc(/C=N/n2c(COc3ccccc3)n[nH]c2=S)cc1	-2.3	-9.9%	-8.9%	3.4%
47	Cn1cc(CNCC2CCCO2)c(-c2ccc(Oc3ccccc3)cc2)n1 (stereo not drawn)	5.2	-21.5%	11.9%	0.1%
48	CC(C)C[C@H](NC(=O)N1CC(=O)Nc2ccccc21)C(=O)N[C@@H](Cc1ccccc1)C(=O)O	·	0.6%	3.1%	-0.1%

The list continues:
item	Structure	GLA inh pH 4.5	miR-21 reporter	Rango release inh	Rango complex inh
49	Cc1ccc(SC(=O)c2c([N+](=O)[O-])c(C)nn2C)cc1	-1.8	4.9%	18.8%	-0.3%
50	Cc1cn2c(=O)c(C(=O)N3CCN(c4ccccc4Cl)CC3)cnc2s1	·	·	8.9%	4.1%
51	CC1Cc2nc(SCC(=O)N3CCCc4ccccc43)n(C)c(=O)c2S1 (stereo not drawn)	7.7	-2.4%	-4.2%	-4.4%
52	COCCCNC(NC(=O)c1ccc(Br)cc1)C(Cl)(Cl)Cl (stereo not drawn)	-3.6	-0.1%	25.5%	1.6%
53	COc1ccccc1CNCc1cc(OC)c(OC)c(OC)c1	-7.2	-1.8%	1.0%	-0.4%
54	Cc1noc(NS(=O)(=O)c2ccc(N/C=C/C(=O)c3ccncc3)cc2)c1C	-4.5	-22.3%	7.4%	-0.1%
55	CC(C)(C)NC(=O)c1ccc(NC(=O)CSc2ccccc2)cc1	-3.1	-12.4%	-5.2%	-0.6%
56	CCCCCCCCCCOC(=O)Cn1c(COc2ccccc2C)[n+](C)c2ccccc21	·	?	0.5%	17.8%
57	O=C(Nc1ccc(C(F)(F)F)cc1-c1ccccc1)c1ccccc1	1.1	-10.8%	1.9%	5.9%
58	COc1cc(CC(=O)OCC(=O)Nc2ccc(S(=O)(=O)N3CCCC3)cc2)cc(OC)c1OC	4.5	5.1%	15.4%	-2.5%
59	CCOC(=O)c1ccc(OC(=O)CCCCCN=C(N)N)cc1	5.0&-10.5	·	9.5%	0.1%
60	Cc1ccc(N2CCC(N3CCN(C)C(CCO)C3)CC2)cc1 (stereo not drawn)	·	-8.4%	-19.6%	-4.7%

Next part.
item	Structure	GLA inh pH 4.5	miR-21 reporter	Rango release inh	Rango complex inh
61	CN(C)CCCNC(=O)/C(=C\C=C\c1ccccc1)NC(=O)c1ccc([N+](=O)[O-])cc1	-13.6	-9.2%	19.2%	8.4%
62	CC(C)Cc1nnc(NC(=O)CCC(=O)NCCc2ccccc2)s1	·	2.2%	6.9%	0.8%
63	O=C(c1ccc(Cn2cnnn2)cc1)N1CCCC(Nc2ccc(F)c(F)c2)C1 (stereo not drawn)	·	0.0%	-1.6%	-3.9%
64	N#Cc1cccc(-n2c(-c3ccccc3)nnc2-c2ccccc2)c1C#N	-6.8	-17.8%	7.7%	-0.6%
65	CS(=O)(=O)c1ccc(Cl)c(NC(=O)COC(=O)CNC(=O)c2ccc3ccccc3c2)c1	·	·	-0.3%	3.5%
66	CN(C)CCNC(=O)CN1C(=O)CSc2ccc(S(=O)(=O)N3CCCCC3)cc21	·	0.3%	0.0%	0.2%
67	c1ccc(Cn2c(NCc3ccco3)nc3ccccc32)cc1	0.6	-9.6%	-5.9%	3.4%
68	COc1ccc(CNC(=O)CN2C(=O)NC3(CCCc4sccc43)C2=O)cc1 (stereo not drawn)	·	·	-6.2%	0.8%
69	Cc1cnc(NC(=O)CSc2nnc(CNc3ccc(F)cc3)n2CC2CCCO2)s1 (stereo not drawn)	-2.2	2.1%	3.0%	0.5%
70	CCOc1cc(N2CCOCC2)c(OCC)cc1NC(=O)CN1C(=O)NC(CC(C)C)C1=O (stereo not drawn)	-9.9	0.5%	-0.7%	-1.4%
71	COc1ccc(C(=O)Cn2nnc(-c3ccccc3F)n2)cc1	6.6	-10.5%	-15.6%	1.5%
72	O=C(O)/C=C/C(=O)Nc1ccc(C2(c3ccc(NC(=O)/C=C/C(=O)O)cc3)c3ccccc3-c3ccccc32)cc1	·	7.9%	1.2%	0.8%

Following part
item	Structure	GLA inh pH 4.5	miR-21 reporter	Rango release inh	Rango complex inh
73	COc1cccc2[nH]c3c(N4CCC5(CC4)OCCO5)ncnc3c12	15.4	-12.4%	-6.5%	0.2%
74	Cc1ccc(C)c(OCCCN2CCCC2)c1	3.7	-7.7%	0.6%	-0.5%
75	Cc1csc(NC(=O)C2=NN(c3ccccc3)C(=O)CC2)n1	2.4	1.5%	8.0%	2.2%
76	O=C(Cn1cnc2c(nnn2Cc2ccc(F)cc2)c1=O)Nc1cccc(F)c1	14.0	-3.9%	9.5%	-4.0%
77	O=C(Nc1ccc(N2CCOCC2)nc1)c1ccc(Cl)cc1	4.3	-15.5%	-3.2%	-2.9%
78	COc1cccc(NC(=O)CN(C)C(=O)c2ccc(N3CCOCC3)c([N+](=O)[O-])c2)c1	·	·	28.4%	7.6%
79	COc1ccc(NCC(=O)N/N=C/c2ccc3c(c2)OCCO3)cc1	-6.1	-21.7%	-7.1%	-2.2%
80	NCC(O)c1ccc(O)c(O)c1 (stereo not drawn)	-0.4	·	8.9%	?
81	CC(C)(C)c1cc(C(=O)NNC(=O)c2ccc(C(F)(F)F)cc2)no1	0.6	1.7%	42.2%	-2.5%
82	O=S(=O)(c1cccc(Cl)c1)N1CCC(c2nc3ccccc3[nH]2)CC1	·	21.5%	18.2%	-3.3%
83	CCOC(=O)C1=NNC2C(=O)N(CC)C(=O)C12 (stereo not drawn)	7.2	-0.2%	4.2%	-0.2%
84	O=C(OCc1ccccc1)/C(=C(\O)c1ccccc1Br)c1ccc(-c2ccccc2)cn1	·	·	-4.3%	-5.5%
85	O=C(C1=C[C@H](c2ccc(C(F)(F)F)cc2)C[C@H](OCc2ccc(CO)cc2)O1)N1CCN(Cc2ccc3c(c2)OCO3)CC1	-24.0	27.2%	0.6%	2.8%
86	COc1ccccc1NC(=O)C1=C(C)Nc2nc(-c3cccnc3)nn2C1c1ccccn1 (stereo not drawn)	·	·	-1.1%	-0.6%

Screening results as filed in PubChem.
